AF4-AF9 inh: MLL-AF4/AF9 protein interaction inhibition; AlphaScreen, biotin-AF4 peptide binding to FLAG-AF9; 0.47% of 350,000 active; inhibition, % at 10 µM; P42568; AID 651704;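 active = every replicate reaching a set inhibition limit, whatever the replicate mean, cut at about 25% in these data; inconclusive = mean inhibition reaches that limit but some replicates miss it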;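 also: 0% = plate neutral control median and 100% = total signal loss; the record names both 10 and 1 µM as test concentration; the first replicate is given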
RanGTP-Impb inh: inhibitors of RanGTP-importin-beta interaction, primary screen, biochemical, FRET, CFP-Ran, YFP-importin-beta, homogeneous; cell-free CFP-Ran/YFP-importin-beta FRET ratio; inhibition, % (concentration not given with the values); 1.1% of 300,000 active; AID 2216;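 active = most replicates above 15%; inconclusive = exactly half above 15%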;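 also: 0% = DMSO wells and 100% = Ran loaded with GDP instead of GTP; wells of about 40 µL received 100 nL stock; the first replicate is given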
LANA-H2B inh: blocks KSHV LANA binding to histone H2A/H2B | Q9QR71 | cell-free LANA-H2A/H2B peptide, fluorescence polarization | inhibition, % (no concentration beside the values) | 0.6% of 320,000 active | AID 2629; in the data active = inhibition mostly above about 10%, no sharp cut-off; inactive = mostly below about 6.7%;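 also: stock transfer was 7.5 nL into about 10 µL; 0% = median of vehicle wells and 100% = median of positive control wells; one replicate is shown; the record names a cut of 25% in any replicate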
Target sequence (Q9QR71 whole entry, looked up): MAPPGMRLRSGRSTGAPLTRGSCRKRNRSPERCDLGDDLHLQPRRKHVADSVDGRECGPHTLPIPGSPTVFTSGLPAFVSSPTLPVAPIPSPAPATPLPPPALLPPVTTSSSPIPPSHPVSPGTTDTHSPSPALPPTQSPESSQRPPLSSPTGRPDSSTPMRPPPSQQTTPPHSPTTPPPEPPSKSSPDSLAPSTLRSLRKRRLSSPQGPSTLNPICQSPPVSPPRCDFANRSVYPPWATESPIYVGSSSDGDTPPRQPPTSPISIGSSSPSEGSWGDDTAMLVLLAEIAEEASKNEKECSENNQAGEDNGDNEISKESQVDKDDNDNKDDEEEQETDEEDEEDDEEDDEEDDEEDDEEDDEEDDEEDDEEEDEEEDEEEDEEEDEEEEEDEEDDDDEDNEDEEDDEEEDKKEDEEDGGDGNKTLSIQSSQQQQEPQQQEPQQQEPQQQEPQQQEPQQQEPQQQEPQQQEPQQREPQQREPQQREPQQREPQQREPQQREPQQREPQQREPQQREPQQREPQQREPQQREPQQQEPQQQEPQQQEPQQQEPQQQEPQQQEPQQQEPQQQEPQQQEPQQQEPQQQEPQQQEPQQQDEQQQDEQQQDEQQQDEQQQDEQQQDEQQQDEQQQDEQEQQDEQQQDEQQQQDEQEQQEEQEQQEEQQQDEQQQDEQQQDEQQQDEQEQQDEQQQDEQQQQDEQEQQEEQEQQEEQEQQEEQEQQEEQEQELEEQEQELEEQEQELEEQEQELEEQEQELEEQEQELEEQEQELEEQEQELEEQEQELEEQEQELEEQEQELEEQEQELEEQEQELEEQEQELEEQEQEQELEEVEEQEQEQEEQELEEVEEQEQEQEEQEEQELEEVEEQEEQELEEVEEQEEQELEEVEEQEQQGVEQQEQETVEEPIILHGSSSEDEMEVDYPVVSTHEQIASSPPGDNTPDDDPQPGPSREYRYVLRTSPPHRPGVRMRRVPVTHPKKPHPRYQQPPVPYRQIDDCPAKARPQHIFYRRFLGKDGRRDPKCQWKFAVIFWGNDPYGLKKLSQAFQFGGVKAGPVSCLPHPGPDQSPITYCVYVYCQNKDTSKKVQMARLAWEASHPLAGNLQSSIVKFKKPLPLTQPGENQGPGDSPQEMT
Beta apoptosis: blocks beta cell apoptosis; AID 435005; INS-1E cytokine-induced death, ATP luminescence, 48 h; percent of positive-control rescue, neutral wells zero; 0.8% of 300,000 active; protection from apoptosis, % (test concentration not listed);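 active = all replicates at 75% or more, or half of them and the mean; inconclusive = half reach 75% but not the mean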;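 also: 0% = cytokine-treated negative control wells and 100% = positive control rescue; higher means more ATP so stronger rescue from cytokine killing; wells of about 40 µL received 100 nL stock; the first replicate is given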
Calb FLC: affects C. albicans growth with fluconazole | C. albicans CaCi-2 (fluconazole-resistant clinical isolate) + fluconazole, Alamar Blue growth, 48 h | growth inhibition, % (no concentration beside the values) | 0.57% of 300,000 active | AID 1979;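 active = most replicates above 75%; inconclusive = exactly half above 75%; inactive = most below 75%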;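 also: all wells also contain fluconazole at 8 µg/ml as a sub-toxic cotreatment; 0% = median of DMSO wells and 100% = median of geldanamycin control wells; wells of about 8 µL received 7.5 nL stock; the first replicate is given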
Vif TR-FRET: HIV-1 Vif–A3G interaction blockers – biochemical, TR-FRET, GST-Vif 1-94, biotin-A3G peptide, dose response retest, primary screen (AID 1117319). TR-FRET GST-Vif / biotin-A3G peptide binding; higher % means a stronger effect; test concentration not given here; strong numbers were not always called active. one-dose inhibition, %; IC50 in µM for titrated hits. 0.57% of 260,000 active;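 active = above the screen mean plus three standard deviations and confirmed in dose response; inconclusive = results disagree or hit not tested in dose response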;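 also: Vif residues 1-94 fused to GST binding biotinylated APOBEC3G peptide 110-148; 0% = full assay without inhibitor and 100% = GST in place of GST-Vif; retest series ran down from 100 µM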
Bfl-1 A1 inh: inhibitors of the anti-apoptotic protein A1, read as caspase activation; caspase activation, % (concentration not given with the values); MEF A1-2A-BIM cells, Caspase-Glo 3/7 luminescence, 3 h; percent of clofoctol response, vehicle zero; 0.066% of 330,000 active; AID 2462;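 active = over half of replicate activation scores above 10%, or exactly half above 10 with the replicate mean above 10; inconclusive = replicate mean below 10 yet half the replicates above 10; inactive = over half of replicates below 10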;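 also: wells of about 30 µL received 50 nL stock; many hits fall short of the cut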
T cruzi inh: blocks replication of Trypanosoma cruzi. T. cruzi beta-gal in NIH3T3, luminescence, 90 h. inhibition, % (concentration not given with the values). 1.4% of 300,000 active. AID 1885;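 active = mean inhibition across valid replicates above about 55%, limit read from the data; inconclusive = mean below that limit but half or more replicates reach it; inactive = mean below it, under half of replicates reach it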;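 also: signal also drops with host cell toxicity which is not excluded here; 0% = plate median of DMSO wells and 100% = zero luminescence signal; higher percent means less beta-gal luminescence so fewer parasites; stock transfer was 50 nL into about 50 µL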
Numbers without * were called inactive; u = inconclusive; x = not tested or not shown. Rows are unselected, and some 4.3% of all compounds hit somewhere here.

SMILES	AF4-AF9 inh	RanGTP-Impb inh	LANA-H2B inh	Beta apoptosis	Calb FLC	Vif TR-FRET	Bfl-1 A1 inh	T cruzi inh
COc1ccccc1C(NC(C)=O)c1cc(Cl)c2cccnc2c1O (stereo not given)	-2.9	6.6	0.0	94*	-6	7%	-0.5	61*
CCOc1ccc(Br)cc1C(=O)Nc1ccc(C(=O)NCC(C)C)cc1	x	-2.5	2.4	20	0	16%	0.7	36
Nc1ccc(C#Cc2ccc3c(=O)c4ccccc4oc3c2)cc1	-5.2	-29	-0.4	-6	-6	x	-0.9	-16
NC(=O)C(c1ncc(C(F)(F)F)cc1Cl)c1c(Cl)cccc1Cl (stereo not given)	x	-3.7	6.0	1	3	12%	0.6	-6
Cc1ccc(S(=O)(=O)c2nc(Cc3ccccc3)oc2N2CCOCC2)cc1	4.4	x	-0.2	-2	x	x	-0.8	x
CSc1nnc(NC(=O)c2cc3ccccc3oc2=O)s1	-2.7	2.9	-1.0	x	1	2%	-1.1	-10
O=C(CN1C(=O)C(=O)N(Cc2ccccc2)C1=O)c1ccc[nH]1	0.7	x	0.1	-1	x	-2%	-0.5	x
COC(=O)c1c(NC(=O)CSc2nnnn2C)sc(C)c1C	x	-0.7	0.5	-2	-8	1%	-0.2	19
Cc1ccccc1NC(=O)CN1C(=O)N/C(=C\c2cccn2-c2cccc(C(=O)O)c2)C1=O	-3.4	-1.4	-7.3	-5	23	-3%	-0.4	7
CN(C)N1C(N)=C(C#N)C(c2cccnc2)C2=C1CC(C)(C)CC2=O (stereo not given)	x	2.1	-2.0	5	-3	-8%	-1.8	-23
N/C(=N\OC(=O)c1ccccc1F)c1ccc([N+](=O)[O-])cc1	-1.1	-4.8	-0.9	0	-5	-13%	-4.1	9
COCCNC(=O)Cn1nc(C)c([N+](=O)[O-])c1C	-1.6	0.5	0.4	-3	-5	x	1.0	1
O=C(O)CCCNS(=O)(=O)c1ccc(Br)s1	3.5	-2.5	4.1	3	-21	14%	0.0	-9
O=C(CCC1CCCC1)NNC(=O)c1cc2ccccc2cc1O	-6.6	-16	-1.3	-1	-5	x	0.3	-12
Cc1ccc(S(=O)(=O)NCCC(=O)OCC(=O)N(Cc2ccccc2)C(C)(C)C)cc1	-0.3	-3.8	0.2	-3	9	6%	0.1	-1

Sorted by the number under LANA-H2B inh (smallest number first): 3 from the list above
canonical_smiles	LANA-H2B inh
O=C(CCC1CCCC1)NNC(=O)c1cc2ccccc2cc1O	-1.3
Cc1ccc(S(=O)(=O)NCCC(=O)OCC(=O)N(Cc2ccccc2)C(C)(C)C)cc1	0.2
COC(=O)c1c(NC(=O)CSc2nnnn2C)sc(C)c1C	0.5

Additional compounds.
SMILES	AF4-AF9 inh	RanGTP-Impb inh	LANA-H2B inh	Beta apoptosis	Calb FLC	Vif TR-FRET	Bfl-1 A1 inh	T cruzi inh
CC(C)COP(=O)(OCC(C)C)C(Nc1ccccc1)c1ccccc1 (stereo not given)	-1.4	1.6	-1.6	x	0	-9%	0.2	17
CC(OC(=O)c1cccs1)C(=O)NC1CCCCC1C (stereo not given)	-2.2	x	2.9	0	x	-8%	-0.3	x
O=C(Nc1ccc(Cl)c(Cl)c1)C1CCN(C(=O)c2ccco2)CC1	1.7	-0.1	1.1	x	-22	-4%	0.3	-6
COc1cc(CCN2C(=O)c3cccc4cccc(c34)C2=O)c(S(=O)(=O)N2CCC(C)CC2)cc1OC	12	1.0	-3.0	11	5	x	-0.9	59*
Fc1cccc(Cl)c1CN1CCN(c2nc3ccccc3s2)CC1	-1.3	2.3	1.2	2	-2	-6%	0.5	37
Cn1cnc2c1c(=O)[nH]c(=O)n2C	x	-1.5	-5.2	2	x	0%	0.7	-9
Cc1cccc(NC(=O)CCOc2ccccc2)c1	x	2.7	0.1	2	-23	11%	1.8	6
Cc1nc2ccccc2nc1N/N=C/c1ccc(O)cc1	7.3	-9.0	0.8	1	7	15%	-1.7	-10
Cc1cc(C)n2c(nc3ccccc32)c1C(=O)NCc1ccccc1	-3.7	2.4	6.6	0	-12	-3%	1.2	-2
N#CC1(NC(=O)CN2C(=O)NC(Cc3c[nH]c4ccccc34)C2=O)CCCCC1 (stereo not given)	1.5	x	-3.9	0	x	12%	0.8	x
Cc1cc2cc(C#N)c(N3CCOCC3)nc2cc1Cl	-1.6	7.4	-5.7	-5	5	-11%	-0.5	1
O=C(CCN1CCOCC1)Nc1ccc(F)cc1	-3.8	-2.3	-2.8	-1	0	0%	u	-11
O=C(NCc1ccco1)N1c2ccccc2Sc2ccccc21	-33	1.8	-3.9	-6	-4	4%	0.5	17
COc1cc2c(cc1NC(=O)/C=C/c1ccc([N+](=O)[O-])cc1)oc1ccccc12	-7.5	0.5	x	-2	9	u	0.4	0
COc1ccccc1-c1nc(-c2ccncc2)no1	x	2.5	0.0	-4	-24	3%	-7.5	1
CCC(C)Sc1cc(-c2nc3ccc(C)cn3c2NCc2ccccc2)ccc1OC (stereo not given)	16	0.8	0.8	x	20	x	0.2	36
N=C(N)n1c(N)nc2ccccc2c1=O	1.0	2.1	5.1	0	8	-4%	0.4	-19
Cc1nn(CC(=O)Nc2cccnc2)c(=O)c2ccccc12	-0.9	-6.0	-1.4	3	18	0%	2.0	-3
O=c1ccccn1Cc1c(Cl)cccc1Cl	1.2	3.9	-1.8	-4	-7	-1%	0.3	-23
O=C(CCS(=O)(=O)CCN1CCOCC1)NCNC(=O)CCS(=O)(=O)CCN1CCOCC1	-1.2	-2.2	1.6	-3	-6	-4%	0.6	-4
CCCC1CCc2c(sc(NC(=O)c3cccs3)c2C(N)=O)C1 (stereo not given)	x	6.0	15	0	u	-1%	0.7	43
Cc1cc2ccccn2c1C(=O)c1ccc([N+](=O)[O-])o1	0.5	2.6	-7.2	-62	u	x	-0.2	74*
Cc1ccccc1C(=O)O/N=C(\N)c1ccccc1	-1.6	u	2.7	6	-7	-5%	-8.7	1
COc1ccc(C)cc1S(=O)(=O)NC1CCCC1	x	u	2.1	-8	-4	2%	-0.7	2
Cc1[nH]c2ccccc2c1C(=O)/C=C/c1ccccc1	x	-2.3	-0.9	-3	9	0%	0.7	2
O=C(CSC1=NCCS1)Nc1nc2ccccc2s1	x	3.2	3.2	-14	2	8%	-1.3	26
Cc1ccccc1Nc1c(-c2ccccn2)nc2ccccn12	42*	-4.0	-1.9	17	6	7%	-0.4	44
O=C(NCc1ccccc1)NS(=O)(=O)c1ccccc1Cl	x	3.2	2.1	-7	-4	u	0.7	-18
COc1ccc(C2CC(c3ccccc3OC(C)=O)=NN2C(=O)/C=C/c2ccccc2)cc1OC (stereo not given)	x	5.4	-5.3	15	9	x	-1.0	2
O=C(NCCCN1CCCCC1)C1CCN(c2ncnc3c2nc2n3CCCCC2)CC1	-1.8	1.3	3.5	-4	-4	x	0.1	-2
CSc1ccc(Cl)c(C(=O)NNC(=O)c2cccs2)c1	-2.6	x	-5.5	-1	x	0%	0.3	x
CCOC(=O)C1=C(COC(=O)/C=C/c2ccc(OC)c(OC)c2)NC(=O)NC1C (stereo not given)	8.1	3.9	1.0	-2	2	5%	0.4	-5
O=C(NCC1CCCN1S(=O)(=O)c1cccs1)c1ccc(F)cc1 (stereo not given)	-79	-3.4	-10	-2	10	3%	1.8	5
CN(CCC1CCOCC1)C(=O)CC1C(=O)NCCN1Cc1cccc(F)c1 (stereo not given)	0.0	0.2	-0.6	-4	4	x	-1.4	-8
Cc1cc(C(=O)Nc2c(C)nn(Cc3ccccc3)c2C)on1	-15	-0.4	-5.5	-1	1	-4%	1.1	-15
C=CCOc1ccc(/C=C/C(=O)Nc2ccc(C(=O)NC)cc2)cc1	-4.5	2.3	-0.8	-5	29	5%	-0.4	-4
CC1CCCC(C)N1CCCNC(=O)Cn1ncc2c3ccccc3n(C)c2c1=O (stereo not given)	x	u	4.0	-7	-8	-10%	0.9	-1
COCCN(C(=O)c1snc(C(N)=O)c1N)C(C(=O)NC1CCCC1)c1cc(OC)c(OC)c(OC)c1 (stereo not given)	2.5	7.5	-4.0	-3	0	x	-0.5	7
C=CCN1C=C2C(=O)C(C)(OC(=O)c3cccs3)C(=O)C=C2C=C1CCCC(=O)OC (stereo not given)	-1.1	4.7	5.0	-8	-5	u	-0.3	5
Nc1nc(Nc2ccccc2Br)nc(C(F)(F)F)n1	-1.5	0.4	-2.0	4	4	10%	0.3	3
Cn1c(-c2ccccc2)cnc1NCc1cc2c(cc1[N+](=O)[O-])OCO2	3.5	u	1.1	-1	-7	x	0.1	8
Clc1cccc(Cc2nn[nH]n2)c1	-1.5	-2.3	1.2	-3	2	2%	1.2	-12
c1ccc(CC(Nc2ccccn2)c2ccccc2)cc1 (stereo not given)	x	-0.9	2.1	11	-41	x	0.5	21
CS(=O)(=O)N(CC(=O)N1CCN(Cc2ccccc2)CC1)c1cccc(F)c1	-0.4	2.4	3.0	-2	-5	x	-0.3	2
COc1ccc(C2c3[nH]c4ccccc4c3C[C@H]3C(=O)N(CC(C)C)CC(=O)N23)c(OC)c1 (stereo not given in full)	6.4	1.5	-9.8	8	28	4%	0.5	9
CCc1cc(C(=O)Cc2nc3ccccc3[nH]2)c(O)cc1O	x	u	1.0	0	11	11%	0.1	10
CCCCOC(=O)CSC1=C(C#N)C(c2ccccc2OCC)C(C#N)C(=O)N1 (stereo not given)	x	u	-6.4	x	7	u	-0.8	5
CCOc1ccc(NC(=O)Nc2cc(C)on2)cc1	x	u	-8.1	0	-8	10%	-5.0	3
CCOc1ccc(OCc2cccc(C(=O)N(CC)CC)c2)cc1	-5.9	4.2	-4.4	64	13	-8%	-0.5	14
COC(=O)c1cnc[nH]1	0.5	-1.4	-4.7	3	x	x	-0.2	-19
O=C(COc1coc(CN2CCCc3ccccc32)cc1=O)Nc1ccccc1	-0.6	-1.7	1.5	4	3	-7%	0.6	-2
COC(=O)c1ccccc1COn1c(=O)c[n+]([O-])c2ccccc21	x	-2.1	-0.6	-6	-3	x	-0.7	-3
CCCCSc1nnc(CSc2ncccn2)n1C	-2.3	1.3	-4.8	0	5	7%	0.1	-13
Cn1c(=O)c2c(nc(N3CCC(C(N)=O)CC3)n2CCSc2nc3ccccc3s2)n(C)c1=O	3.2	-0.4	9.0	1	0	x	0.6	-4
C=C1CCC[C@]2(C)C[C@H]3OC(=O)C(CN(Cc4ccc(OC)c(OC)c4)CC(C)O)[C@H]3CC12 (stereo not given in full)	0.1	-6.5	-0.3	-44	-7	2%	0.8	-22
CC(NC(=O)c1ccc(Br)o1)c1ccc(-n2ccnc2)cc1 (stereo not given)	-0.8	x	1.5	-1	x	-6%	0.1	x
Cc1cc(N)ccc1-n1nc2ccccc2n1	-1.7	2.1	2.1	-7	9	x	-0.2	-11
CSc1ccccc1NC(=O)C1CCCN(S(C)(=O)=O)C1 (stereo not given)	-1.0	1.0	-4.5	1	-2	x	0.1	-5
